# Bioassay records (PubChem BioAssay)
# A1 inh: inhibitors of the anti-apoptotic protein A1, read as caspase activation; MEF A1-2A-BIM cells, Caspase-Glo 3/7 luminescence, 3 h; percent of clofoctol response, vehicle zero; AID 2462; hit rate 0.066% among 330,000; caspase activation, % (no concentration beside the values);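 active = over half of replicate activation scores above 10%, or exactly half above 10 with the replicate mean above 10; inconclusive = replicate mean below 10 yet half the replicates above 10; inactive = over half of replicates below 10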;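 note: wells of about 30 µL received 50 nL stock; many hits fall short of the cut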
# Calb FLC: affects C. albicans growth with fluconazole | C. albicans CaCi-2 (fluconazole-resistant clinical isolate) + fluconazole, Alamar Blue growth, 48 h | growth inhibition, % (test concentration not listed) | hit rate 0.57% among 300,000 | AID 1979;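 active = most replicates above 75%; inconclusive = exactly half above 75%; inactive = most below 75%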;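 note: all wells also contain fluconazole at 8 µg/ml as a sub-toxic cotreatment; 0% = median of DMSO wells and 100% = median of geldanamycin control wells; wells of about 8 µL received 7.5 nL stock; the first replicate is given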
# AF4-AF9 inh: inhibitors of human MLL-AF4/AF9 interaction; P42568; AlphaScreen, biotin-AF4 peptide binding to FLAG-AF9; inhibition, % at 10 µM; hit rate 0.47% among 350,000; AID 651704;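 active = every replicate reaching a set inhibition limit, whatever the replicate mean, cut at about 25% in these data; inconclusive = mean inhibition reaches that limit but some replicates miss it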;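 note: 0% = plate neutral control median and 100% = total signal loss; the record names both 10 and 1 µM as test concentration; the first replicate is given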
# Target sequence (P42568 whole entry, looked up): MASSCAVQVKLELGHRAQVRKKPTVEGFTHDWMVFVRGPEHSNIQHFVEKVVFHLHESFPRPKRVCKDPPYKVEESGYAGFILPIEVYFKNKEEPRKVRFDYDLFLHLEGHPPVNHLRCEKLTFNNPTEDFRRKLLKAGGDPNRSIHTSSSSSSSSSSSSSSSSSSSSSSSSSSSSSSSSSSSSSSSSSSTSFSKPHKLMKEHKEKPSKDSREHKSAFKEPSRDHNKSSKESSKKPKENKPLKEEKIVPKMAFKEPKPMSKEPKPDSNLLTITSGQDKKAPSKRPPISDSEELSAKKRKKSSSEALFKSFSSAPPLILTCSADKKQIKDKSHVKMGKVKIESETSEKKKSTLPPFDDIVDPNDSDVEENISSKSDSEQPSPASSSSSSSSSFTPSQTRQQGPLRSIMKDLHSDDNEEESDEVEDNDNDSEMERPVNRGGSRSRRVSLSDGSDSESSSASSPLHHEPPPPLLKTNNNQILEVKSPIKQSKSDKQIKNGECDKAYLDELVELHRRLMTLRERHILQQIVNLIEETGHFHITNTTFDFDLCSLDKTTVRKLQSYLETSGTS
# T cruzi inh: T. cruzi replication inhibition | T. cruzi beta-gal in NIH3T3, luminescence, 90 h | inhibition, % (concentration not given with the values) | hit rate 1.4% among 300,000;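 active = mean inhibition across valid replicates above about 55%, limit read from the data; inconclusive = mean below that limit but half or more replicates reach it; inactive = mean below it, under half of replicates reach it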;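 note: signal also drops with host cell toxicity which is not excluded here; 0% = plate median of DMSO wells and 100% = zero luminescence signal; higher percent means less beta-gal luminescence so fewer parasites; stock transfer was 50 nL into about 50 µL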
# Vif TR-FRET: HIV-1 Vif–A3G interaction blockers – biochemical, TR-FRET, GST-Vif 1-94, biotin-A3G peptide, dose response retest, primary screen (AID 1117319); TR-FRET GST-Vif / biotin-A3G peptide binding; higher % means a stronger effect; test concentration not given here; strong numbers were not always called active; inhibition, %; hits with a dose series show IC50 in µM; hit rate 0.57% among 260,000;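 active = above the screen mean plus three standard deviations and confirmed in dose response; inconclusive = results disagree or hit not tested in dose response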;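 note: Vif residues 1-94 fused to GST binding biotinylated APOBEC3G peptide 110-148; 0% = full assay without inhibitor and 100% = GST in place of GST-Vif; retest series ran down from 100 µM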
# Beta cell apopt: blocks beta cell apoptosis. INS-1E cytokine-induced death, ATP luminescence, 48 h; percent of positive-control rescue, neutral wells zero. protection from apoptosis, % (concentration not given with the values). hit rate 0.8% among 300,000. AID 435005;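 active = all replicates at 75% or more, or half of them and the mean; inconclusive = half reach 75% but not the mean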;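 note: 0% = cytokine-treated negative control wells and 100% = positive control rescue; higher means more ATP so stronger rescue from cytokine killing; wells of about 40 µL received 100 nL stock; the first replicate is given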
# RanGTP-Impb inh: disruptors of Ran-importin-beta complex formation – biochemical, FRET, CFP-Ran, YFP-importin-beta, homogeneous, primary screen | inhibition, % (concentration not given with the values) | hit rate 1.1% among 300,000 | AID 2216 | cell-free CFP-Ran/YFP-importin-beta FRET ratio;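 active = most replicates above 15%; inconclusive = exactly half above 15%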;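 note: 0% = DMSO wells and 100% = Ran loaded with GDP instead of GTP; wells of about 40 µL received 100 nL stock; the first replicate is given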
# rRNA inh HTS: inhibits bacterial ribosomal RNA function over humanized ribosomes. E. coli WT GFP vs humanized-ribosome RFP mutants, fluorescence, 24 h; hits give low values; DMSO median 0, no signal -100. GFP signal change (wild-type ribosome), % (concentration not given with the values). hit rate 1.6% among 350,000. AID 720706;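 active = significant combined selectivity score with lowered wild-type GFP, culture density cut under 30%, mutant RFP and density less affected; inactive = any of these conditions unmet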; note: one replicate is shown; some compounds called inactive have numbers as strong as hits
# rRNA inh HTS OD600: further read-out of rRNA inh HTS, marked with its call; OD600 change, %; measured here: OD600 growth;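 optical density of the mix in the first replicate; 0 = DMSO median and -100 = no signal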
# rRNA inh HTS RFP: further read-out of rRNA inh HTS, marked with its call; RFP signal change, %; measured here: RFP humanized mutant strains;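 first replicate; 0 = DMSO median and -100 = no signal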
# * hit, by the source's call; ? = inconclusive; . = not tested or not shown; & = joins results of further samples. Some of the compounds tested, so the mix of outcomes need not match the whole.
SMILES,A1 inh,Calb FLC,AF4-AF9 inh,T cruzi inh,Vif TR-FRET,Beta cell apopt,RanGTP-Impb inh,rRNA inh HTS,rRNA inh HTS OD600,rRNA inh HTS RFP
C#CCOCCOCCOCCNc1nc(N2CCOCC2)nc(N2CCN(C(=O)[C@H]([C@@H](C)O)n3cc(CCCCN)nn3)CC2)n1,2.0,1.3,8.0,-15.8,?,-5.0,?,10.1,9.2,3.1
O=C1Nc2ccc(S(=O)(=O)NCCCO)c3cccc1c23,?,-6.3,-4.6,-9.6,-5.3%,.,5.5,-21.7,-15.5,-5.2
COCCCNc1nc2c(c(=O)n(C)c(=O)n2C)n1Cc1cccc(OC)c1,0.1,30.4,.,-6.2,67.5%,9.5,-1.5,.,.,.
CC(=O)Nc1c2c3c(cccc3n(C)c1=O)C(=O)c1ccccc1-2,1.7,-10.1,.,0.7,63.0%,-11.3,-3.4,.,.,.
COC(=O)c1c(NC(=O)/C=C/C(=O)O)sc(C)c1-c1ccc(C)cc1,0.6,-10.4,-0.6,-8.2,.,-0.4,-0.3,-24.6,-33.2,-7.0
CCCc1cnc(N2CCN(S(C)(=O)=O)CC2)nc1,0.2,3.2,-2.9,0.4,-7.7%,-1.4,1.8,8.5,4.8,3.9
O=C(Nc1cccc(Cl)c1N1CCOCC1)c1cccnc1,2.5,-0.9,-0.9,-3.8,.,.,3.7,2.5,3.9,-0.5
Cc1cccc(-c2noc(CCC(=O)NCc3ccco3)n2)c1,0.3,-0.4,4.6,0.3,-5.8%,2.8,-0.6,.,.,.
Cc1cccc2c1-c1sc(C(=O)NCCCN3CCCC(C)C3)cc1CO2 (stereo unspecified),-0.6,-2.2,7.0,13.8,.,13.8,2.9,-57.3,-79.5,-20.9
Cc1ccc(N2CC(C(=O)Nc3nc4ccc(S(C)(=O)=O)cc4s3)CC2=O)cc1 (stereo unspecified),0.8,4.3,-5.2,-14.6,14.1%,-3.2,2.4,-4.6,-8.0,-1.1
CCCc1ccc(Oc2cc(Cl)nc(N)n2)cc1,0.1,-11.5,2.3,-6.9,2.6%,0.3,3.1,0.5,-0.5,-6.6
CCOC(=O)C1(C)/C(=N/Nc2ccccc2OC)C(=O)C(=O)N1c1ccccc1 (stereo unspecified),-0.7,0.3,17.8,-12.3,5.1%,-1.1,.,-17.8,-15.4,-1.6
Cc1cc(C)n(CCC(=O)N2CCN(S(=O)(=O)c3ccccc3)CC2)n1,-0.6,-2.4,-1.6,7.7,.,-2.1,-3.1,6.1,1.7,-2.2
CC(c1ccccc1)n1cc(C(=O)NCc2ccccn2)nn1 (stereo unspecified),-0.7,1.3,.,11.3,4.4%,.,0.7,.,.,.
Cc1ccc2nc(NCc3ccccc3)c(C=NCc3cccnc3)c(=O)n2c1,0.0,3.1,-7.5,0.9,.,-0.7,-1.7,11.1,9.9,-0.4
CC(CN1CCCCC1)OC(=O)c1ccc2c(c1)OCO2 (stereo unspecified),-0.4,2.9,.,-3.9,-7.2%,0.6,-7.1,.,.,.
O=C(COC(=O)c1cccnc1Cl)c1ccc2c(c1)OCCO2,-8.1,-4.6,-2.3,-8.3,10.5%,-3.7,1.1,5.2,3.0,-0.4
CCOC(=O)c1ccc(NC(=S)N2CCN(C)CC2)cc1,-0.2,-4.4,0.8,-4.7,.,-5.5,-0.5,-4.5,-3.5,-0.8
COc1ccc(CCNCC(=O)Nc2ccc(C)c(S(=O)(=O)N(C)C)c2)cc1OC,0.3,-2.9,.,2.6,31.0%,-4.5,0.7,12.8,-4.8,0.6
O=C(COC(=O)c1cccc(F)c1)Nc1cccnc1Cl,0.6,32.3,0.3,.,1.3%,-3.4,.,8.9,3.4,2.6
CCOc1ccccc1NC(=O)c1ccc2[nH]c(C)c(C)c2c1,-0.7,-2.9,0.7,12.7,.,5.5,0.0,3.6,7.3,7.1
CCOC(=O)C1(CC2CC2)CCN(Cc2cn[nH]c2-c2cccc(F)c2)CC1,0.5,2.8,3.3,14.7,25.7%,4.8,5.1,-7.8,-16.4,3.4
O=C(COC(=O)c1cccnc1Cl)c1ccccc1,0.2,1.2,2.8,-5.2,-2.7%,4.4,-0.9,12.7,7.0,-7.2
COc1ccc(C(=O)NCC(=O)OCc2nc(N)nc(Nc3ccccc3C)n2)cc1,0.0,.,-5.0,.,-0.2%,-2.7,.,2.8,-2.5,0.1
CC(C)c1ccc(NC(=O)c2ccc3snnc3c2)cc1,0.4,-6.4,-3.6,17.5,.,9.9,1.4,5.0,-4.6,-1.1

# Later entries.
SMILES,A1 inh,Calb FLC,AF4-AF9 inh,T cruzi inh,Vif TR-FRET,Beta cell apopt,RanGTP-Impb inh,rRNA inh HTS,rRNA inh HTS OD600,rRNA inh HTS RFP
COc1ccc(CSCC(=O)N/N=C/c2ccccc2O)cc1,0.0,28.7,-0.8,22.2,.,-10.0,2.8,-33.6,-30.9,-7.7
CN1CCN(C(=S)NC(=O)c2ccc(C(C)(C)C)cc2)CC1,-0.2,0.4,-4.6,-4.1,-9.2%,-8.5,1.3,-3.0,-1.7,-0.9
O=[N+]([O-])c1cnc2ccccn12,0.4,-3.3,-1.4,-14.2,-6.1%,-2.1,2.3,20.4,6.2,3.7
CC1=C(C(=O)Nc2ccc(C)cc2)C(c2ccc(N(C)C)cc2)NC(=O)N1 (stereo unspecified),0.1,?,.,-7.2,24.2%&-2.2%,3.6,-6.0,.,.,.
COc1ccc(S(=O)(=O)Nc2cccc3c2O[C@H](CN(C)S(=O)(=O)c2ccc(OC)cc2)[C@@H](C)CN([C@H](C)CO)C3=O)cc1,0.0,.,3.5&-1.2,.,-5.5%,-7.8,.,-1.0&7.2,-2.2&14.1,0.8&12.2
CCN1C(=O)/C(=C\N2CCOCC2)SC1=S,0.1,-23.5,.,-3.0,12.3%,-1.0,7.2,.,.,.
O=C1CCCC(=NCc2ccco2)C1,0.3,8.1,1.3,-11.2,-1.8%,.,7.8,7.0,2.3,-3.8
Cc1nn(Cc2ccccc2)c(C)c1/C=N/NC(=O)c1cccnc1,1.2,-7.3,1.8,-8.8,.,-6.0,-2.0,1.3,4.3,1.9
Cc1cc(C)cc(NC(=O)N2c3ccccc3NC(=O)CC2C)c1 (stereo unspecified),0.4,-9.1,1.3,.,.,-7.1,-2.0,3.9,2.4,4.2
O=C(NC12CC3CC(CC(C3)C1)C2)c1ccc([N+](=O)[O-])cc1,-0.8,-1.3,-4.7,-7.1,.,.,-4.6,6.6,10.6,-1.6
CCOC(=O)c1ccc(N=C2C(=S)N(c3ccc(C(=O)OCC)cc3)C(=N)N2/N=C/c2ccccc2)cc1,0.3,18.2,.,0.5,?,7.4,0.7,.,.,.
CCS(=O)(=O)N1Cc2ccccc2CC1C(=O)N(C)Cc1ccc(OC)c(F)c1 (stereo unspecified),0.0,-4.1,-0.3,-5.5,-8.5%,-8.5,-1.1,6.1,9.4,12.0
CC(C)CCn1c(CN2CCN(Cc3ccccc3)CC2)nc2c1c(=O)n(C)c(=O)n2C,0.3,-1.1,.,27.0,-0.1%,1.3,1.2,.,.,.
O=C(c1ccccc1)n1nnc2ccccc21,0.2,4.3,.,-24.9,31.5%,-3.0,5.9,.,.,.
COc1cc(COCC(O)CN2CCc3ccccc3C2)cc(OC)c1OC (stereo unspecified),-0.2,3.4,-9.6,10.3,10.8%,-7.4,?,6.0,17.1,-1.7
Nc1nn(-c2ccccc2)c(N)c1N=Nc1ccccc1,-1.0,0.6,.,-32.2,2.3%,12.2,-1.2,.,.,.
Cc1ccc(C2=N/C(=C\c3cccc(F)c3)C(=O)O2)cc1,-0.2,1.3,4.1,-1.3,.,-6.9,2.9,15.2,13.2,-1.4
N#CCc1cc2ccc3cccc4ccc(c1)c2c34,0.7,-5.5,-0.4,0.9,-8.2%,2.6,0.3,-3.4,-6.3,0.0
CCOc1ccc2nc(NC(=O)C(CCSC)NS(=O)(=O)c3cccs3)sc2c1 (stereo unspecified),-0.1,1.8,.,7.6,4.9%,1.5,0.1,.,.,.
Cc1cccc(NC(=O)C2CC2c2ccccc2)c1C (stereo unspecified),0.7,0.9,1.1,-12.2,.,.,?,6.6,5.3,-1.4
Cc1cccc(COc2ccc(/C=N/NC(=O)c3nnn(-c4nonc4N)c3CN3CCCCC3)cc2)c1,-1.1,-0.3,0.2,-5.8,1.3%,1.5,1.3,8.8,1.4,1.5
N#CC(C(=O)Nc1cccc(Cl)c1)=C1Nc2ccccc2N1,-0.4,-5.8,.,6.5,-10.9%,19.5,0.6,.,.,.
CCCC(C(=O)Nc1cccc(S(=O)(=O)N2CCCC2)c1)c1ccccc1 (stereo unspecified),0.6,-3.4,8.0,11.7,-2.8%,-3.2,-4.4,-6.6,-14.2,4.2
CCOc1ccc(Br)cc1S(=O)(=O)Nc1ccc(Cl)c(S(=O)(=O)N(C)C)c1,0.5,-2.5,.,-0.1,8.2%,-1.4,-2.8,.,.,.
Cc1ccc(OCc2n[nH]c(=S)n2Cc2ccccc2)cc1,-0.1,-5.0,-2.3,0.3,24.6%,0.2,3.9,-8.2,-8.7,2.9

# (more compounds)
SMILES,A1 inh,Calb FLC,AF4-AF9 inh,T cruzi inh,Vif TR-FRET,Beta cell apopt,RanGTP-Impb inh,rRNA inh HTS,rRNA inh HTS OD600,rRNA inh HTS RFP
CCOc1cc(CNCCO)cc(Br)c1OCc1cccs1,-0.2,-18.2,-7.3,6.8,?,9.2,0.1,-16.7,-36.5,11.8
CCC(Sc1nc(N)c(NC(=O)c2ccco2)c(=O)[nH]1)C(=O)O (stereo unspecified),0.6,.,-1.1,-2.8,7.2%,-2.3,.,9.8,4.4,1.3
O=C1CCN(S(=O)(=O)c2ccc(Cl)cc2)N1,1.5,-9.6,.,-15.3,?,1.4,-2.8,.,.,.
O=C(Nc1ccc(Br)cc1Br)c1cccc2c1C(=O)N(C1CCCCC1)C2,0.1,11.2,1.0,39.0,-1.5%,3.7,-0.8,1.8,8.3,-3.1
O=C(NN=C1CCCCCCCCCCC1)c1cccc(S(=O)(=O)N2CCOCC2)c1,-0.5,-21.2,.,-1.2,0.7%,-5.7,2.7,.,.,.
CCCCNC(=S)N1CCN(Cc2ccc3c(c2)OCO3)CC1,-0.1,-3.5,-0.9,-4.1,15.6%,1.9,2.9,-13.6,-8.2,0.4
O=C1OC(CC(=O)N(Cc2nnc(-c3ccccc3Cl)o2)C2CC2)c2ccccc21 (stereo unspecified),-0.4,.,3.1,.,3.2%,-4.1,.,-5.3,-14.6,2.2
Cc1nc2cc(NC(=O)COc3ccc(C#N)cc3)ccc2n1-c1ccccc1,0.5,32.8,.,13.5,16.3%,1.2,-2.1,.,.,.
c1ccc(-c2nc[nH]c2-c2ccccc2)cc1,.,-0.1,.,3.2,3.0%,.,-0.5,.,.,.
